Assay outcomes (PubChem)
MT1-MMP act inh – blockers of MT1-MMP proenzyme processing, primary screen, HT1080 RFP-PRO-GFP cells, GFP/RFP fluorescence | GFP/RFP ratio fluorescence, overnight; percent of plate control window, DMSO zero | hit rate 0.061% among 360,000 | GFP/RFP ratio change, % at 20 µM | Matrix metalloproteinase-14 (Homo sapiens), P50281;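 active means GFP/RFP ratio change of at least 30% with cell ATP level not reduced by more than half and red fluorescence within 50% of control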; further: strong numbers were not always called active
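Material: RFP-PRO-GFP reporter HT1080 cells. Dosing: single-point 20 µM compound, 1% DMSO. Controls: DMSO and RFP-L50D-GFP cell wells. Timing: cells overnight before dosing, compound overnight, 37 °C, 5% CO2. Measure: GFP/RFP fluorescence ratio.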
eIF4H inh – human eIF4H binding inhibitors, primary screen, translation initiation inhibitor project, biochemical, uHTS, fluorescence polarization | inhibition, % at 35 µM | eIF4H fluorescence polarization binding assay | Eukaryotic translation initiation factor 4H (Homo sapiens), Q15056 | hit rate 0.94% among 290,000;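 active means 50% or more with normal probe brightness, or confirmed in later tests; about a fifth of its hits are not listed in these tables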;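 further: calls also rest on retests at 20 µM and on dose response follow-up; 0% = protein and probe with vehicle and 100% = probe without protein; strong numbers were not always called active; many hits fall short of the cut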
PABP polyA inh – PABP poly(A) RNA binding inhibitors, primary screen, biochemical, fluorescence polarization, uHTS | Polyadenylate-binding protein 1 (Homo sapiens), P11940 | inhibition, % at 35 µM | hit rate 1% among 290,000 | AID 2014, 2009;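 active means 50% or more with normal probe brightness, or confirmed in later tests; about a fifth of its hits are not listed in these tables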;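 further: calls also rest on retests at 20 µM and on dose response follow-up; controls were probe without protein and protein plus probe with vehicle; some compounds called inactive have numbers as strong as hits; many hits fall short of the cut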
Rce1 inh – yeast Rce1p protease inhibitors, primary screen, biochemical, fluorescence, cell-free homogeneous. hit rate 0.27% among 290,000. yeast membranes, quenched prenylated peptide cleavage fluorescence. calls only;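 active means fall in fluorescence gain of 50% or more versus controls, with final raw signal at or below 3038400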;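 further: plate controls were neutral control wells for no effect and wells lacking membranes for full effect; tested at 10 µM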
Target sequence (Q03530 whole entry, looked up): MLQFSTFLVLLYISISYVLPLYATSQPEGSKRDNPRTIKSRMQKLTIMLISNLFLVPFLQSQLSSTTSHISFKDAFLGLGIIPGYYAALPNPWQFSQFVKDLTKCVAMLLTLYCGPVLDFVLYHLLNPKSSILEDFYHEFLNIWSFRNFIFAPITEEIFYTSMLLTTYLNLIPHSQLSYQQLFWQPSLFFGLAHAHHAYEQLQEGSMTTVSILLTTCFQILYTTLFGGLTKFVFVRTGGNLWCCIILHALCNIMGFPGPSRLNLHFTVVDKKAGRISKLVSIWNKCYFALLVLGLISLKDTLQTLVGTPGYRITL
HIV Env fusion – inhibitors of HIV-1 Env-driven cell-cell fusion, primary screen, HeLa-JRFL effector, CEM21 target cells, luciferase. inhibition, % at 12.3 µM. hit rate 1.1% among 360,000;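 active means mean replicate inhibition score of at least 50 and every replicate individually at or above 50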;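 further: 0% = plate neutral controls and 100% = maraviroc near 300 nM; one replicate is shown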
CSC inhib – cancer stem cell viability inhibitors, primary screen, luminescence; hit rate 1.1% among 300,000; cancer stem cell-like cells viability; inhibition, % at 7.5 µM; AID 2717, 2010;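 active means mean at 75% or more and at least half the replicates too; tested in HMLE shEcad cells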;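 further: 0% = median of negative and 100% = median of positive control wells; the first replicate is given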
UUG fidelity – modulators of yeast start codon fidelity, primary screen, whole organism, S. cerevisiae, single point, plate reader. S. cerevisiae UUG-firefly luciferase reporter, luminescence/redox ratio. activity score, % at 18.7 µM. hit rate 0.13% among 350,000. AID 602363, 2012;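 active means replicate mean at a twofold rise or more, about +100% in these data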;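 further: firefly luciferase made from a UUG start codon reports start codon fidelity; reporter light over untreated wells divided by growth signal over untreated wells; some hits fall short of that in this replicate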
MT1-MMP act inh RFP – also measured in MT1-MMP act inh; calls as there; RFP signal change, %; measured here: RFP expression control read;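 0 = vehicle wells; hits needed this value within 50% of zero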
An asterisk follows results filed as active; i = inactive; . = no result given; & = joins results of further samples. Some of the compounds tested; rates above refer to the full screens.

The line under a structure holds: MT1-MMP act inh	UUG fidelity	MT1-MMP act inh RFP	eIF4H inh	HIV Env fusion	PABP polyA inh	Rce1 inh	CSC inhib
COc1cccc(NC(=O)CS(=O)(=O)c2cccc3nsnc23)c1
→ 2.3	-9.5	3.1	6.9	-17.7	7.8	i	3.9
COc1ccc(-c2nn(-c3ccccc3)cc2/C=C2/SC(=S)N(CCCC(=O)O)C2=O)c(C)c1
→ 8.4	-16.5	-4.1	15.2	-4.6	4.8	i	54.0
CCOc1ccc(/C=N/Nc2ccccc2)cc1
→ 1.5	-9.7	4.0	-6.9	-7.5	-10.7	i	10.5
COCCNC(=O)C(C)OC(=O)c1cc2occc2n1C (stereo unspecified)
→ 1.0	.	3.5	4.5	.	-9.1	i	.
O=C(CCC(=O)Nc1nnc(C2CCCCC2)s1)Nc1ccc(F)cc1
→ -0.6	.	-0.7	-3.3	2.1	-4.4	i	0.8
Cn1cccc1/C=N\NC(=O)C1COc2ccc(C(C)(C)C)cc2O1 (stereo unspecified)
→ 1.5	-14.4	-0.9	4.5	19.1	6.6	i	-0.2
CCOC(=O)c1ccccc1NC(=O)c1cn(CC)c2nc(C)ccc2c1=O
→ 4.3	.	-0.1	.	-5.3	.	i	30.8
COc1cccc(NC(=O)C(NCCC(C)C)c2ccccc2)c1 (stereo unspecified)
→ -1.8	4.7	-4.0	-1.1	-79.4	2.9	i	-0.8
C#CCN(C[C@H]1[C@H](OC(=O)NC2CCCC2)[C@H](OC(=O)NC2CCCC2)C[C@H]2C(=O)N(c3ccccc3)C(=O)[C@@H]12)S(=O)(=O)c1ccc(C)cc1
→ -1.8	-10.5	-4.2	.	-18.3	.	.	.
COc1cccc(-c2nnc(SCC(=O)Nc3cc(C)ccc3OC)n2N)c1
→ -1.1	-8.4	0.7	3.8	9.0	0.1	.	-9.4
Cc1ccccc1NS(=O)(=O)c1ccc(F)cc1
→ -4.1	-11.0	1.8	-9.3	4.0	-5.0	i	-14.2
COc1ccc(Nc2nc(N)nc(SCc3nnc(C)s3)n2)cc1
→ -1.2	-3.3	-4.5	-4.0	.	-4.0	i	1.6
Cc1c(C#N)sc(C(N)=O)c1C
→ -0.7	.	-1.1	-1.1	-2.5	-1.1	i	11.7
COc1cc(-c2nn3c(Cc4ccccc4)nnc3s2)cc(OC)c1OC
→ 11.8	-16.3	0.9	2.4	-3.1	-7.3	i	-14.3
COc1ccc(-c2nnc(SCC(=O)/C(C#N)=C(\C)N)o2)cc1
→ -6.7	-40.8	-2.4	15.2	.	7.4	i	-11.3
COc1ccc(C(C)(O)c2nc(-c3ccccc3OC)cs2)cc1 (stereo unspecified)
→ -6.3	-11.5	-6.3	.	9.3	.	.	.
CCOC(=O)Cc1c[nH]c2ccc([N+](=O)[O-])cc12
→ -6.0	-5.2	0.7	.	29.9	.	.	.
Cc1ccc(NC(=S)N/N=C/c2c(C)nn(-c3ccccc3)c2N2CCCC2)cc1
→ -8.4	.	-11.6	-1.1	.	1.1	i	-7.6
CCOC(=O)c1c(/N=C/c2ccc(C)cc2O)sc2c1CCN(C)C2
→ -1.8	-16.0	1.4	0.4	-1.5	-0.6	i	-7.9
O=C(NNS(=O)(=O)c1ccccc1Cl)C1COc2ccccc2O1 (stereo unspecified)
→ -1.1	-12.6	2.8	.	.	.	.	-21.8
COC(=O)COc1ccc(S(=O)(=O)Nc2ccccc2C(=O)OC)cc1
→ 6.4	-5.8	-4.4	-3.8	-12.1	-5.5	i	-5.3
O=C(Nc1cccc(Cl)c1)NC1CC2CCC1C2 (stereo unspecified)
→ 1.2	-5.5	-3.1	1.1	-7.6	1.2	i	-3.1
Cc1cc(NC(=O)COn2nnc3ccc(Cl)cc32)no1
→ 2.9	-6.2	2.4	9.1	.	-8.2	i	-4.1
Cc1cc(C)n(-c2ccc(NC(=O)C3CCCCN3C(=O)c3ccc(C)s3)cc2)n1 (stereo unspecified)
→ -0.9	-6.7	-2.7	8.2	-2.7	14.5	i	-8.2
Cc1ccc(CNS(=O)(=O)c2ccc3c(c2)N(C)CCO3)cc1
→ 2.6	-24.6	-2.7	.	5.5	.	i	5.7
CC(C)OCCCNC(=O)C1CCC(=O)N1C1CCCC1 (stereo unspecified)
→ 5.7	-3.3	-3.4	-4.7	.	1.4	i	3.4
Cc1ccc2nc(N3CCOCC3)c3nncn3c2c1
→ -2.0	-40.9	2.7	-2.2	-20.7	10.4	i	-10.8
CC(=O)N(Cc1ccccc1)c1c(N)nc(N)[nH]c1=O
→ 0.5	-12.0	0.4	.	-34.5	.	i	-5.8
CCCc1ccc(Oc2cc(C)nc(N3CCOCC3)n2)cc1
→ -4.4	9.8	-5.1	-2.9	.	-10.2	i	.
COc1ccc(-c2c(C#Cc3ccsc3)c3cc(-c4ccc(CN5CCOCC5)cc4)ccc3n2C)cc1
→ 7.8	-10.5	6.8	.	3.2	.	.	31.2
COc1cc(NC(=O)c2ccccc2)c(OC)cc1NC(=O)CN1C(=O)NC2(CCCCC2)C1=O
→ 2.0	11.7	0.9	.	-22.2	.	.	.
CC1(C(=O)NNC(=O)c2ccc([N+](=O)[O-])cc2)CC1(Br)Br (stereo unspecified)
→ 4.1	22.9	-0.9	.	-5.0	.	i	-5.6
O=C(NCc1cccnc1)c1cc(-c2ccccc2)on1
→ 15.7	-14.8	0.8	-10.5	.	-4.1	i	2.4
NC(=O)C1CCN(C(=O)CSc2nc3ccccc3s2)CC1
→ -0.4	-11.5	0.7	2.8	-1.7	10.4	i	1.7
O=S(=O)(NC1CC2CCC1C2)c1ccc(Cl)cc1 (stereo unspecified)
→ 2.8	-1.2	-1.1	-4.6	11.8	7.0	i	-1.3
CC(C)CC(=O)Nc1ccc2c(c1)nc(CCN1CCCCC1)n2C
→ 1.5	.	-0.9	-13.1	-1.3	-4.2	i	-8.7
Clc1ccccc1CN1CCC(Cc2ccccc2)CC1
→ -1.1	-33.8	2.8	-4.2	0.8	-0.5	i	32.7
O=C(NCCC1CCCCN1S(=O)(=O)c1ccccc1)C(=O)NC1CCCC1 (stereo unspecified)
→ 2.7	.	3.5	.	.	.	i	-24.9
Cc1ccc(C(=O)NNC(=O)CSc2nnc(-c3ccccc3)n2Cc2ccccc2)cc1
→ -0.4	.	0.3	-9.9	.	3.8	i	-4.1
CC(C)n1nccc1N(Cc1ccc(Cl)cc1)S(=O)(=O)c1ccccc1
→ -1.9	-1.0	-4.7	-4.5	-5.7	2.0	i	.

The list goes on, starting with the last 2 of the part before.
The line under a structure holds: MT1-MMP act inh	UUG fidelity	MT1-MMP act inh RFP	eIF4H inh	HIV Env fusion	PABP polyA inh	Rce1 inh	CSC inhib
Cc1ccc(C(=O)NNC(=O)CSc2nnc(-c3ccccc3)n2Cc2ccccc2)cc1
→ -0.4	.	0.3	-9.9	.	3.8	i	-4.1
CC(C)n1nccc1N(Cc1ccc(Cl)cc1)S(=O)(=O)c1ccccc1
→ -1.9	-1.0	-4.7	-4.5	-5.7	2.0	i	.
O=C(CCc1nnc2ccc(NCc3ccc(F)cc3)nn12)NC1CCCC1
→ 0.3	-17.2	2.8	-3.0	-11.3	-5.1	i	-6.2
CC(=O)C1=C(O)CC(c2ccccc2)CC1=NCCc1c(C)[nH]c2ccccc12 (stereo unspecified)
→ -7.6	-7.6	-6.8	-10.4	-73.1	7.0	i	-8.5
N#C/C(=N/Nc1ccc([N+](=O)[O-])cc1)C(=N)N1CCCCC1
→ 17.8	.	-2.0	-10.1	-108.5	-14.0	i	.
O=C(CSc1n[nH]c(Cc2ccccc2)n1)Nc1ccccc1Br
→ -2.3	-24.7	-3.5	-13.0	-13.3	-1.3	i	3.3
CCN(CC)C(=O)c1cc(Cl)ccc1NC(=O)c1ccco1
→ 3.6	-16.2	9.3	-8.9	3.0	-10.6	i	-4.7
CCOc1cccc(-c2c(C(=O)N/N=C/c3ccc(Br)cc3)nnn2-c2nonc2N)c1
→ 1.4	-14.2	-1.1	7.5	8.9	5.2	i	-2.9
COc1cccc(/C=N/NC(=S)NCc2ccco2)c1OC
→ 2.6	.	-0.6	-2.3	-34.3	-6.8	i	-3.2
N#Cc1nc(COc2ccc(Cl)cc2Cl)oc1N1CCOCC1
→ -6.4	-0.7	-3.1	-8.5	7.2	-7.8	i	16.5
COCCN1C(=O)c2oc3ccccc3c(=O)c2C1c1ccc(O)c(OC)c1 (stereo unspecified)
→ 0.6	-1.3	2.7	1.5	17.9	11.7	i	-0.7
N#Cc1ccc(OCC(=O)Nc2nc(-c3cccnc3)cs2)cc1
→ 0.3	-15.1	6.7	.	1.0	.	.	-13.4
CCOc1ccc(N2C(=O)c3ccccc3NC2(C)CC)cc1 (stereo unspecified)
→ 4.3	-5.1	3.4	.	-33.3	.	.	.
O=C(Nc1ccc2c(c1)OCO2)N1CCN(S(=O)(=O)c2ccc(Cl)cc2)CC1
→ 5.0	20.5	2.9	0.3	-76.2	-10.8	i	-0.7
COC(=O)Cc1cc(=O)n2[nH]c(SC)nc2n1
→ -6.3	-11.0	3.2	5.8	-44.9	35.4	i	.
C=CC[C@H](CC(=O)N(CCO)Cc1ccccc1)C(=O)N[C@H](COC(=O)[C@H](CC=C)CC(=O)OC(C)(C)C)Cc1ccccc1
→ -17.7	-0.5	-15.3	.	-6.1	.	.	9.6
CCCNC(=O)N(C)C[C@@H]1Oc2cc(C#CC(C)(C)O)ccc2S(=O)(=O)N([C@H](C)CO)C[C@H]1C
→ -0.1	-16.0&0.9	2.4	.	-13.5	.	.	.
COc1ccc(-c2cc(C(=O)N(C)CC(=O)Nc3ccccc3Br)c3ccccc3n2)cc1OC
→ -8.3	3.9	-1.5	.	20.9	.	i	19.8
COC(=O)c1ccc(C(=O)OC)c(NC(=O)CSCc2ccc(Cl)cc2)c1
→ -0.9	.	-5.9	-12.3	.	-3.9	i	-2.5
COc1cc(OC)c(OC)cc1/C=C/C(=O)OCC(=O)Nc1c(C)n(C)n(-c2ccccc2)c1=O
→ 0.9	1.7	4.8	.	1.1	.	.	.
COc1cc(NC(=O)SC2=NCCS2)cc(OC)c1
→ -3.4	-11.7	-1.4	4.8	21.3	-5.7	.	.
CC1CN(S(=O)(=O)c2cccc(C(F)(F)F)c2)CC(C)O1 (stereo unspecified)
→ 0.9	-6.6	1.2	-6.9	18.6	-4.1	i	-7.8
Cc1ccc(S(N)(=O)=O)cc1NC(=O)c1ccc2c3c(cccc13)CC2
→ 3.5	0.7	-1.7	3.6	-4.5	-11.0	i	10.0
Cc1ccc(C(=O)NCC2CCCO2)cc1[N+](=O)[O-] (stereo unspecified)
→ 1.6	-8.4	2.6	-0.2	-2.1	-0.6	i	-6.2
COc1ccccc1-c1cc(NC=O)c2ncc(-c3cccc(C(=O)N(C)C)c3)n2c1
→ 6.4	7.2	-3.9	.	36.7	.	.	.
COc1ccc(C(C)=O)cc1CSc1nncn1C
→ 5.7	.	3.6	-12.7	-5.4	3.9	i	-12.9
CC(=O)Nc1ccc(S(=O)(=O)NC2CCSc3ccccc32)cc1 (stereo unspecified)
→ 1.0	-10.8	-2.0	-5.4	-3.6	-1.9	i	-5.0
O=C(Nc1nnc(S(=O)(=O)Nc2ccccc2)s1)c1ccccc1Cl
→ -4.5	1.9	-3.5	4.1	10.3	2.2	i	16.7
S=C(NCCSCc1ccc(Cl)cc1Cl)Nc1ccccc1
→ 2.3	-29.4	-7.1	-0.7	-55.7	-3.6	i	52.6
